UUG fidelity – modulators of start codon recognition fidelity in yeast. S. cerevisiae UUG-firefly luciferase reporter, luminescence/redox ratio. activity score, % at 18.7 µM. actives 0.13% (n = 350,000);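 active means replicate mean at a twofold rise or more, about +100% in these data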;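 further: firefly luciferase made from a UUG start codon reports start codon fidelity; reporter light over untreated wells divided by growth signal over untreated wells; some hits fall short of that in this replicate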
Rce1 inhib – inhibitors of yeast Ras-converting enzyme. yeast membranes, quenched prenylated peptide cleavage fluorescence. calls only. actives 0.27% (n = 290,000). AID 2563;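 active means fall in fluorescence gain of 50% or more versus controls, with final raw signal at or below 3038400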;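 further: plate controls were neutral control wells for no effect and wells lacking membranes for full effect; tested at 10 µM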
Target sequence (Q03530 whole entry, looked up): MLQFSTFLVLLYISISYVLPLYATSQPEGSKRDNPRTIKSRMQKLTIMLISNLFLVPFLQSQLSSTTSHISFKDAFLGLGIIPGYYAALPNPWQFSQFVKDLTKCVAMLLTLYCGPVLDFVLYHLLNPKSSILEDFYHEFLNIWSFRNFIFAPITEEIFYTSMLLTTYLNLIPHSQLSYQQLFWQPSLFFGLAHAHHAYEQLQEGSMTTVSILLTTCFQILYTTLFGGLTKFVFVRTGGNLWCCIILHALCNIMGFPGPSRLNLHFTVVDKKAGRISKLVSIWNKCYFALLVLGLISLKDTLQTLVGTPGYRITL
MT1-MMP act inh – MT1-MMP (human) activation inhibition. P50281. HT1080 RFP-PRO-GFP cells, GFP/RFP ratio fluorescence, overnight; percent of plate control window, DMSO zero. GFP/RFP ratio change, % at 20 µM. actives 0.061% (n = 360,000). AID 651647;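 active means GFP/RFP ratio change of at least 30% with cell ATP level not reduced by more than half and red fluorescence within 50% of control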; further: strong numbers were not always called active
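Assay system: RFP-PRO-GFP reporter HT1080 cells; read-out basis: GFP/RFP fluorescence ratio; benchmarks: DMSO wells and RFP-L50D-GFP cells; doses: 20 µM single dose, 1% DMSO; schedule: overnight cell settling, then overnight compound exposure, 37 °C, 5% CO2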
HIV Env fusion – blocks HIV Env-driven cell-cell fusion. AID 651610. actives 1.1% (n = 360,000). HeLa-JRFL Env/CEM21 cell fusion, luciferase. inhibition, % at 12.3 µM;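 active means mean replicate inhibition score of at least 50 and every replicate individually at or above 50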;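 further: 0% = plate neutral controls and 100% = maraviroc near 300 nM; one replicate is shown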
eIF4H FP inh – inhibitors of RNA binding by human eIF4H; AID 2012; eIF4H fluorescence polarization binding assay; inhibition, % at 35 µM; actives 0.94% (n = 290,000); Q15056;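 active means 50% or more with normal probe brightness, or confirmed in later tests; about a fifth of its hits are not listed in these tables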;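 further: calls also rest on retests at 20 µM and on dose response follow-up; 0% = protein and probe with vehicle and 100% = probe without protein; strong numbers were not always called active; many hits fall short of the cut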
PABP FP inh – PABP-poly(A) binding inhibition. AID 2014. actives 1% (n = 290,000). P11940. PABP-poly(A) RNA binding, fluorescence polarization. inhibition, % at 35 µM;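 active means 50% or more with normal probe brightness, or confirmed in later tests; about a fifth of its hits are not listed in these tables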;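 further: calls also rest on retests at 20 µM and on dose response follow-up; controls were probe without protein and protein plus probe with vehicle; some compounds called inactive have numbers as strong as hits; many hits fall short of the cut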
CSC inhib – cancer stem cell inhibition; cancer stem cell-like cells viability, luminescence; inhibition, % at 7.5 µM; actives 1.1% (n = 300,000); AID 2717;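 active means mean at 75% or more and at least half the replicates too; tested in HMLE shEcad cells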;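 further: 0% = median of negative and 100% = median of positive control wells; the first replicate is given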
eIF4H FP inh retest – second read-out of eIF4H FP inh, no call of its own (marks repeat the call); inhibition, %; compound at 20 µM; confirmation average;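 mean of two retest wells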
PABP FP inh retest – recorded beside PABP FP inh, whose call it bears; inhibition, %; compound at 20 µM; confirmation repeats;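 mean of two retest wells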
MT1-MMP act inh RFP – second read-out of MT1-MMP act inh, no call of its own (marks repeat the call); RFP signal change, %; measured here: RFP expression control read;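 0 = vehicle wells; hits needed this value within 50% of zero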
An asterisk follows results filed as active; i = inactive; nt = no result given; & = joins results of further samples. A portion of the library; count on the stated rates, not on these rows.

SMILES	UUG fidelity	Rce1 inhib	MT1-MMP act inh	MT1-MMP act inh RFP	HIV Env fusion	eIF4H FP inh	PABP FP inh	CSC inhib	others
Oc1ccccc1N1CCN(c2ncnc3sc(-c4ccccc4)cc23)CC1	-7	i	7	4	22	-15	-9	81*
Cc1cccc(NC(=O)Nc2cccnc2)c1C	-3	i	-3	-2	8	-4	5	7
Cc1c(NC(=O)COc2c(F)c(F)c(F)c(F)c2F)c(=O)n(-c2ccccc2)n1C	2	i	-1	1	-3	-13	2	-8
CCN(CC)C(=O)COc1ccc(/C(C)=N/Nc2ncc(Cl)cc2Cl)cc1	-22	nt	-3	-2	-10	-4	-1	-5
CSc1ccccc1OCc1cc(C(=O)NCCC2CCCCO2)no1 (configuration not stated)	-7	i	-1	-5	-16	2	-8	-9
CC(=O)c1c(N2CCN(C)CC2)nc(=S)n(-c2cc(C)ccc2C)c1C	nt	i	-3	1	-61	92	-20	8	eIF4H FP inh retest=0;PABP FP inh retest=7
CN(C(=O)c1cccc(NC(=O)Cc2ccc(NC(=O)C3CCCN(C(=O)C4CC4)C3)cc2)c1)C1CCC1 (configuration not stated)	-6	nt	4	4	6	nt	nt	nt
O=c1[nH]c(CN(CCO)CCO)nc2c1C1(CCCCC1)Cc1ccccc1-2	-20	i	-3	-2	nt	6	0	2
CC(C)(C)CN1C(=O)C(=O)NC[C@@H]1CCCCN	-2	i	0	1	-9	nt	nt	2
COc1cccc2c(=O)c3ccccc3oc12	-11	i	-2	2	-55	-4	40	18
Cc1ccc(S(=O)(=O)CCC(=O)OCc2nnc(-c3ccccc3)o2)cc1	-16	nt	2	-4	-45	nt	nt	-8
CC1=NN(C(=O)Cn2nc([N+](=O)[O-])c(Br)c2C)C(O)(C(F)(F)F)C1 (configuration not stated)	nt	i	-3	-1	8	-4	6	-8
CCC(C)c1ccccc1NC(=O)CN(CC)CC(=O)Nc1ccc2c(c1)OCCO2 (configuration not stated)	-11	nt	-1	-4	12	nt	nt	-10
CCC(=O)N1CCc2cc(Br)cc(S(=O)(=O)N(C)c3ccc(OC)cc3OC)c21	-1	i	1	-5	33	-2	6	-3
Nc1c(Cl)cc(C2=NCCn3c2c2ccc(C(F)(F)F)cc2[n+]3[O-])cc1Cl	13	i	-3	-3	7	nt	nt	-16
CCc1ccc(C(C(=O)NC(C)(C)CC)N(Cc2ccco2)C(=O)Cn2nnc3ccccc32)cc1 (configuration not stated)	6	i	-29	-20	14	-4	22	13
COCCNc1nc(NCc2ccccc2F)c2sccc2n1	-14	nt	2	-10	26	nt	nt	nt
Cc1sc2nc(CC(=O)N3CCCC3)[nH]c(=O)c2c1C	nt	i	1	6	12	-1	-9	7
CCc1cccc2c(C(=O)CCl)c[nH]c12	-4	i	0	3	-141	-3	-2	12
O=C(Cc1ccc(NC(=O)C2CCCN(C(=O)C3CCCCC3)C2)cc1)Nc1cccc(C(=O)N2CCCC2)c1 (configuration not stated)	14	nt	-2	-3	11	nt	nt	nt
CC(C)(C)NC(=O)C(c1ccccc1)N(C(=O)CNC(=O)c1cccs1)c1cccnc1 (configuration not stated)	-14	i	1	5	-4	1	-4	-9
CCC(=O)Nc1ccc(NC(=O)CN2CCCC(C)C2)c(Cl)c1 (configuration not stated)	-18	i	4	1	nt	-7	-3	8
Cc1cccc(OCc2occc2C(=O)Nc2cccc(-n3cnnn3)c2)c1	-11	i	3	-4	6	-6	5	-5
Cc1ccc(SCCOCCN2CCc3ccccc3C2)cc1	-16	i	-2	-1	13	4	-4	49

Of the compounds above, these contain bromine.
SMILES	UUG fidelity	Rce1 inhib	MT1-MMP act inh	MT1-MMP act inh RFP	HIV Env fusion	eIF4H FP inh	PABP FP inh	CSC inhib	others
CC1=NN(C(=O)Cn2nc([N+](=O)[O-])c(Br)c2C)C(O)(C(F)(F)F)C1 (configuration not stated)	nt	i	-3	-1	8	-4	6	-8
CCC(=O)N1CCc2cc(Br)cc(S(=O)(=O)N(C)c3ccc(OC)cc3OC)c21	-1	i	1	-5	33	-2	6	-3

Back to the main list, repeating the two entries before the break.
SMILES	UUG fidelity	Rce1 inhib	MT1-MMP act inh	MT1-MMP act inh RFP	HIV Env fusion	eIF4H FP inh	PABP FP inh	CSC inhib	others
Cc1cccc(OCc2occc2C(=O)Nc2cccc(-n3cnnn3)c2)c1	-11	i	3	-4	6	-6	5	-5
Cc1ccc(SCCOCCN2CCc3ccccc3C2)cc1	-16	i	-2	-1	13	4	-4	49
C=C(C)Cn1c(Sc2nc3ccccc3[nH]2)nc2c1c(=O)[nH]c(=O)n2C	-13	i	4	3	1	-7	4	5
O=C(c1ccncc1)N1CCN(C(=O)c2cccc3ccccc23)CC1	8	i	2	8	nt	2	-3	-3
C=CCn1c(SCC(=O)Nc2ncc(Cc3cc(Cl)ccc3Cl)s2)nnc1-c1ccncc1	nt	i	5	-1	nt	-7	-8	-5
Cc1cccc(C)c1NC(=O)COC(=O)c1ccccc1O	6	i	2	1	14	-10	-1	-20
COc1ccccc1S(=O)(=O)Nc1cccc(S(=O)(=O)N2CCCC2)c1	-1	nt	0	2	18	nt	nt	-5
CCc1cccc(C)c1NC(=O)COC(=O)CC1CCCC1	16	i	5	5	-3	nt	nt	-8
CN(C)C=NC(=O)c1cn(-c2ccc(F)cc2)c(=O)c2ccccc12	nt	i	-5	0	15	9.9*	82	-1	eIF4H FP inh retest=68*;PABP FP inh retest=25
COc1cccc(C(=O)NNC(=O)c2cccnc2)c1	-30	i	-1	4	10	2	-1	nt
CC1CCc2[nH]c3ccc(C(=O)N(C)CC(=O)Nc4ccc(F)cc4)cc3c2C1 (configuration not stated)	-2	i	0	0	4	6	7	10
CC1CCN(C(=O)CSc2nnc(-c3cc4ccccc4cc3O)n2Cc2ccco2)CC1	-1	i	0	1	-26	-12	-2	2
COc1ccccc1CNC(=O)C/C(C)=N/NC(=O)Cc1ccc(OC)c(OC)c1	nt	i	0	4	4	-5	7	10
CN(C)S(=O)(=O)c1cccc(C(=O)OCC(=O)NCc2ccc3c(c2)OCO3)c1	-16	i	-2	-1	1	-10	-16	-4

Ordered by SMILES length (low to high): three of the compounds above.
SMILES	UUG fidelity	Rce1 inhib	MT1-MMP act inh	MT1-MMP act inh RFP	HIV Env fusion	eIF4H FP inh	PABP FP inh	CSC inhib	others
CCc1cccc(C)c1NC(=O)COC(=O)CC1CCCC1	16	i	5	5	-3	nt	nt	-8
CN(C)C=NC(=O)c1cn(-c2ccc(F)cc2)c(=O)c2ccccc12	nt	i	-5	0	15	9.9*	82	-1	eIF4H FP inh retest=68*;PABP FP inh retest=25
C=CCn1c(SCC(=O)Nc2ncc(Cc3cc(Cl)ccc3Cl)s2)nnc1-c1ccncc1	nt	i	5	-1	nt	-7	-8	-5

Next part.
SMILES	UUG fidelity	Rce1 inhib	MT1-MMP act inh	MT1-MMP act inh RFP	HIV Env fusion	eIF4H FP inh	PABP FP inh	CSC inhib	others
COc1nc(OC)nc(N2CCC(C(=O)NCC3CCCCC3)CC2)n1	-4	nt	2	-1	33	-6	3	nt
CCN(Cc1ccccc1)S(=O)(=O)c1ccc(C(=O)N(CCCN(C)C)c2nc3cc4c(cc3s2)OCCO4)cc1	10	i	1	-7	nt	nt	nt	-1
CN(C)NC(=O)C(NC(=O)c1ccccc1)C12CC3CC(CC(C3)C1)C2 (configuration not stated)	-3	i	5	-6	44	-2	-4	nt
COC(=O)C1=C(C)NC(C)=C([N+](=O)[O-])C1c1ccccc1C(F)(F)F (configuration not stated)	-24&9	i	1&5	1&-1	13&10	-3	-12	-4&-2
CCn1nc(NC(=O)c2cccnc2)c2cc3ccccc3nc21	-10	i	4	3	-18	5	6	-19
COc1ccc(S(=O)(=O)N2CCOCC2)cc1C(=O)NC1CCCCC1	0	i	-1	0	1	-17	0	-2
CCCc1cc(=O)oc2cc(OCC(=O)N(C)C)c(Cl)cc12	-14	i	4	2	nt	-3	-9	7
CN(CCc1ccccn1)C(=O)CCNC(=O)Cn1cnc2ccccc2c1=O	-10	i	0	4	38	-16	-8	3
Cc1ccc(S(=O)(=O)N2CC3CCCC2C3)cc1 (configuration not stated)	-16	i	1	1	19	2	11	-11
Cc1ccnc(NCc2c(O)ccc3ccccc23)c1	10	i	1	1	4	-3	-2	-18
Cc1csc(SCC(=O)Nc2oc(C)c3c(C)n[nH]c(=O)c23)n1	nt	i	2	2	nt	nt	nt	4
O=C(CCNS(=O)(=O)c1ccc(Cl)cc1)N1CCN(Cc2ccccc2)CC1	-4	i	1	-3	-85	0	0	2
Cc1cccc(N2CCN(C(=O)C3CC(=O)N(C4CCCC4)C3)CC2)c1C (configuration not stated)	-16	i	-1	-15	8	-8	2	-2
Cc1nn(-c2ccccc2)c(Cl)c1/C=N/O	nt	i	-2	1	-20	-2	4	5
COc1ccc(-n2c(Cc3cccn3C)nnc2SCC(=O)Nc2ccc(C)cc2C)cc1	0	i	3	0	-11	-6	-14	-23
O=c1[nH]c2cc3c(cc2cc1C(c1nnnn1C1CCCC1)N1CCSCC1)OCCO3 (configuration not stated)	-14	i	-6	-6	-12	12	-5	-10
CC(C)Oc1ccc(CNC(=O)CCCN2C(=O)C(c3ccccc3)Oc3cccnc32)cc1 (configuration not stated)	4	i	-2	-1	14	-17	-6	-1
Cn1c(SCC(O)c2ccccc2)nnc1-c1ccc2ccccc2c1 (configuration not stated)	-18	i	4	-1	-8	0	-16	-7
COc1ccccc1N(C(=O)NCc1ccccc1)C1=NCC(C)S1 (configuration not stated)	-8	i	-1	-1	30	-2	36	nt
CN(C)c1cccc(NC(=O)c2cccc3c(-c4ccc(F)c(F)c4)coc23)c1	7	nt	1	-8	28	nt	nt	nt
C=CCN(C(=O)CCC(=O)Nc1cc(C)on1)C(C(=O)NC(C)(C)C)c1ccc(OC)cc1 (configuration not stated)	15	i	-2	-1	-3	-8	1	nt
COC(=O)C1C2CCC(C2)C1C(=O)OCC(=O)c1ccccc1 (configuration not stated)	nt	i	-3	0	-43	-8	-2	-13
CC(=O)c1ccc(Nc2nc(NCCO)nc(OC(C(F)(F)F)C(F)(F)F)n2)cc1	-13	i	7	-5	nt	-9	-4	-7
COc1ccc(NC(=O)Nc2ccc3c(c2)CCC3)cc1OC	nt	i	1	0	5	-1	-8	-3
CCOc1ccc2nc(SCC(=O)NC3CCCc4ccccc43)sc2c1 (configuration not stated)	nt	i	nt	nt	13	-6	2	12
O=C(NC1CCCCCC1)C1CC(=O)N(Cc2ccccc2)C1 (configuration not stated)	-10	i	2	0	-15	-4	3	-1
O=C1CN(C(=O)COc2c(F)c(F)cc(F)c2F)c2ccccc2N1	-11	i	-1	2	nt	4	-2	nt
Cn1c(SCc2ccccc2Br)nc2ccccc2c1=O	-18	i	2	-20	13	6	9	19
CCC(=O)Nc1c2c(nc3c1CCC3)CCCC2	-15	i	5	2	-30	13	-8	5
CCN(CC)C(=O)C1CCN(Cc2ccc(OCc3ccccc3)c(OC)c2)CC1	-24	i	0	-4	-10	13	11	1
COc1cc2c(c3ccccc13)CCCC2=O	-6	nt	1	0	-97	nt	nt	nt
O=C(/C=C/c1ccc(Cl)cc1)Nc1ccc(N2CCOCC2)cc1	nt	i	0	1	7	13	-4	9
CCOC(=O)c1sc2ncn(/N=C/c3ccc(O)c(OC)c3)c(=O)c2c1C	nt	i	5	-2	18	-2	-4	58
COc1ccc(C2=NN(C(C)=O)CC2c2cccc([N+](=O)[O-])c2)cc1 (configuration not stated)	-3	i	5	-1	1	-2	-14	-15
Cc1c[nH]c2cccc(OCC(CNC(C)(C)C)OC(=O)c3ccccc3)c12 (configuration not stated)	-12	i	2	-2	-12	1	10	-7
O=C(CCCNC(=O)c1ccc(Cl)cc1)Nc1ncccc1O	-17	nt	1	2	nt	-7	-5	-5
CCCOC1CCCN(C(=O)c2cc(COc3cncc(Cl)c3)on2)C1 (configuration not stated)	2	i	1	-11	-348	-4	2	nt
